High-throughput results from PubChem BioAssay.
BJeLR lethal: kills HRASV12-expressing BJeLR cells; BJeLR (HRASV12) viability, CellTiter-Glo ATP luminescence, 48 h; reference of the scale not given here; 0.17% of 300,000 active; AID 1554; inhibition, % (no concentration beside the values);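 active = replicate mean above 50%; inconclusive = above 50% but judged a plate artefact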;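 also: 50 nL library stock added to about 25 µL; numbers are from one replicate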
RN4220 kill: S. aureus RN4220 growth inhibition. OD600, 16 h. inhibition, % (concentration not given with the values). 0.33% of 330,000 active;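 active = z-score of -3 or lower and OD600 up to 0.18 on both plates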;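 also: plate controls were untreated cells for no effect and reference antibiotic for full effect; stock transfer was 100 nL into about 80 µL; one replicate is shown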
Mtb hypoxia rep: Mtb hypoxia fluorescent reporter inhibition | fluorescence inhibition, % (concentration not given with the values) | 0.1% of 300,000 active | M. tuberculosis hypoxia-regulated fluorescent reporter, fluorescence;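 active = 35 to 45% if threefold the growth effect, above 45% if 1.5-fold the growth effect; inactive = the rest, general growth blockers included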;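 also: wells of about 50 µL received 100 nL stock; 0% = vehicle wells and 100% = reference inhibitor wells; whole bacteria with a GFP reporter of the hypoxia response; strong numbers were not always called active; many hits fall short of the cut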
Sa ugtP lethal: kills S. aureus RN4220 lacking UgtP; S. aureus RN4220 ugtP deletion, OD600 growth, 16 h; some inactives read as strong as hits; growth inhibition, % (test concentration not listed); 0.54% of 330,000 active; AID 1259309;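 active = z-score under -3 and OD600 up to 0.15 on both plates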;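 also: plate controls were untreated wells for no effect and antibiotic for full effect; wells of about 80 µL received 100 nL stock; the first replicate is given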
Bead autofluor: flagged as autofluorescent in microsphere protease counterscreen; compound autofluorescence counterscreen, microsphere flow cytometry; stronger effect = higher value; fluorescence intensity (concentration not given with the values); 3.1% of 360,000 active;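 active = at least 3 SD above the mean of all compounds, about 16000 in these data; inconclusive = too few beads counted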;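 also: 100 nL of 1 mM stock went into each well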
PrP UTR inh: inhibition of PrP 5' UTR reporter expression; AID 488862; inhibition, % (concentration not given with the values); 0.35% of 340,000 active; cell-based PrP 5' UTR mRNA reporter, plate reader;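 active = every replicate at 50% or more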;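 also: 0 = median of the neutral control wells; tested in H4 reporter cells; numbers are from one replicate; inactives centre near -14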
Mtb hypoxia rep growth: also measured in Mtb hypoxia rep; calls as there; growth inhibition, %; measured here: M. tuberculosis growth (absorbance);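 0% = vehicle and 100% = reference antibiotic; read after six days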
Active calls of the source: *.

Results for COC(=O)c1cccc(NC(=O)c2ccc[n+]([O-])c2)c1 ?
BJeLR lethal: 11; RN4220 kill: -2.5; Mtb hypoxia rep: 0; Sa ugtP lethal: 2; Bead autofluor: 3328; PrP UTR inh: -4; Mtb hypoxia rep growth: 8

What do the screens show for `CNC(=O)c1ccc(NC(=O)CN2c3cccc4cccc(c34)S2(=O)=O)cc1`?
BJeLR lethal: -12; RN4220 kill: 0.4; Mtb hypoxia rep: 4; Sa ugtP lethal: 5; Bead autofluor: 4776; PrP UTR inh: 2; Mtb hypoxia rep growth: -4

What do the screens show for `CC(=O)Nc1ccc(S(=O)(=O)N2CCC(C(=O)NC3CCCC3)CC2)cc1`?
BJeLR lethal: 0; RN4220 kill: -1.3; Mtb hypoxia rep: 8; Sa ugtP lethal: 0; Bead autofluor: 6086; PrP UTR inh: -22; Mtb hypoxia rep growth: 8

How did O=[N+]([O-])c1ccc(N2CCNCC2)cc1N1CCCCCC1 do in these assays?
BJeLR lethal: 0; RN4220 kill: 2.8; Mtb hypoxia rep: 21; Sa ugtP lethal: 12; Bead autofluor: 4661; PrP UTR inh: -10; Mtb hypoxia rep growth: 14

How did COc1ccc(Cl)cc1NC(=O)CN(C)C(=O)c1cccc(S(=O)(=O)N2CCN(C)CC2)c1 do in these assays?
RN4220 kill: 4.7; Mtb hypoxia rep: 2; Sa ugtP lethal: 4; PrP UTR inh: -1; Mtb hypoxia rep growth: 4

What do the screens show for `Cc1cc2oc(=O)cc(CN3CCOCC3)c2cc1O`?
BJeLR lethal: -2; RN4220 kill: 0.9; Mtb hypoxia rep: 1; Sa ugtP lethal: 7; Bead autofluor: 3567; PrP UTR inh: -10; Mtb hypoxia rep growth: 13

Results for CCCCSCCCNC(=O)c1ccc(CS(=O)(=O)c2ccc(OC)cc2)o1 ?
BJeLR lethal: 8; RN4220 kill: -0.8; Mtb hypoxia rep: -9; Sa ugtP lethal: 5; Bead autofluor: 3563; PrP UTR inh: 2; Mtb hypoxia rep growth: 8

What do the screens show for `CCn1cc(-c2n[nH]c(=S)n2-c2ccc(C)cc2Br)c(=O)c2ccc(C)nc21`?
BJeLR lethal: 1; RN4220 kill: 3.2; Mtb hypoxia rep: 3; Sa ugtP lethal: 2; PrP UTR inh: -26; Mtb hypoxia rep growth: 14

Results for C/C(=N\NC(=O)c1nnn(-c2nonc2N)c1CN(C)c1ccccc1)c1cccs1 ?
BJeLR lethal: 3; Bead autofluor: 5328; PrP UTR inh: -12

What do the screens show for `CCN(c1ccccc1)c1nc2nonc2nc1NCCO`?
BJeLR lethal: 7; RN4220 kill: 3.9; Mtb hypoxia rep: 15; Sa ugtP lethal: 8; Bead autofluor: 3935; PrP UTR inh: -10; Mtb hypoxia rep growth: 10

How did Cc1nc(N2CCN(c3ccccn3)CC2)c2c(C)c(C(=O)Nc3ccc(Cl)cc3)sc2n1 do in these assays?
BJeLR lethal: -7; RN4220 kill: -12; Mtb hypoxia rep: 6; Sa ugtP lethal: -11; Bead autofluor: 5390; PrP UTR inh: -10; Mtb hypoxia rep growth: -1

Results for O=c1[nH]n(-c2ccc([N+](=O)[O-])cc2)c(=O)c2ccccc12 ?
BJeLR lethal: -5; RN4220 kill: 1.2; Mtb hypoxia rep: 10; Sa ugtP lethal: 2; Bead autofluor: 3596; PrP UTR inh: 0; Mtb hypoxia rep growth: 0

How did CCOC(=O)C1(Cc2ccc(OC)cc2)CCN(C(=O)CC2CCC(=O)N2)CC1 (stereo unspecified) do in these assays?
BJeLR lethal: 3; RN4220 kill: 4.8; Mtb hypoxia rep: -4; Sa ugtP lethal: 12; Bead autofluor: 3150; PrP UTR inh: -15; Mtb hypoxia rep growth: 1

What do the screens show for `CC(C)(C)NC(=O)c1ccc(C(=O)NC(C)(C)C)cc1`?
BJeLR lethal: 10; RN4220 kill: 2.1; Mtb hypoxia rep: -9; Sa ugtP lethal: -4; Mtb hypoxia rep growth: -6

What do the screens show for `CC(C)c1ccccc1NC(=O)C1CN(S(=O)(=O)c2ccccc2)CCN1S(=O)(=O)c1ccccc1` (stereo unspecified)?
BJeLR lethal: -2; RN4220 kill: 2.3; Mtb hypoxia rep: 5; Sa ugtP lethal: -8; Bead autofluor: 2265; PrP UTR inh: -16; Mtb hypoxia rep growth: -2

As a short view, 6 of the compounds above.
Results for COC(=O)c1cccc(NC(=O)c2ccc[n+]([O-])c2)c1 ?
BJeLR lethal: 11; RN4220 kill: -2.5; Mtb hypoxia rep: 0; Sa ugtP lethal: 2; Bead autofluor: 3328; PrP UTR inh: -4; Mtb hypoxia rep growth: 8

What do the screens show for `CNC(=O)c1ccc(NC(=O)CN2c3cccc4cccc(c34)S2(=O)=O)cc1`?
BJeLR lethal: -12; RN4220 kill: 0.4; Mtb hypoxia rep: 4; Sa ugtP lethal: 5; Bead autofluor: 4776; PrP UTR inh: 2; Mtb hypoxia rep growth: -4

What do the screens show for `CC(=O)Nc1ccc(S(=O)(=O)N2CCC(C(=O)NC3CCCC3)CC2)cc1`?
BJeLR lethal: 0; RN4220 kill: -1.3; Mtb hypoxia rep: 8; Sa ugtP lethal: 0; Bead autofluor: 6086; PrP UTR inh: -22; Mtb hypoxia rep growth: 8

How did O=[N+]([O-])c1ccc(N2CCNCC2)cc1N1CCCCCC1 do in these assays?
BJeLR lethal: 0; RN4220 kill: 2.8; Mtb hypoxia rep: 21; Sa ugtP lethal: 12; Bead autofluor: 4661; PrP UTR inh: -10; Mtb hypoxia rep growth: 14

How did COc1ccc(Cl)cc1NC(=O)CN(C)C(=O)c1cccc(S(=O)(=O)N2CCN(C)CC2)c1 do in these assays?
RN4220 kill: 4.7; Mtb hypoxia rep: 2; Sa ugtP lethal: 4; PrP UTR inh: -1; Mtb hypoxia rep growth: 4

What do the screens show for `Cc1cc2oc(=O)cc(CN3CCOCC3)c2cc1O`?
BJeLR lethal: -2; RN4220 kill: 0.9; Mtb hypoxia rep: 1; Sa ugtP lethal: 7; Bead autofluor: 3567; PrP UTR inh: -10; Mtb hypoxia rep growth: 13

Going on with the list:
Results for COc1ccc(C2CC(=O)N(CCCN(C)CCc3ccc(OC)c(OC)c3)C2)cc1 (stereo unspecified) ?
BJeLR lethal: 1; RN4220 kill: 7.9; Mtb hypoxia rep: 16; Sa ugtP lethal: -1; Bead autofluor: 2473; PrP UTR inh: -15; Mtb hypoxia rep growth: 1

How did CC(=O)Nc1ccc(SCC(=O)c2cc(C)n(C)c2C)cc1 do in these assays?
BJeLR lethal: -1; RN4220 kill: 4.6; Mtb hypoxia rep: -1; Sa ugtP lethal: -2; Bead autofluor: 2908; PrP UTR inh: -37; Mtb hypoxia rep growth: 10

Results for O=C(CNC(=O)c1nc[nH]c1C(=O)N1CCN(c2ccccc2)CC1)OCc1ccccc1 ?
BJeLR lethal: 6; RN4220 kill: 4.8; Mtb hypoxia rep: 8; Sa ugtP lethal: 0; Bead autofluor: 3015; PrP UTR inh: -13; Mtb hypoxia rep growth: 1

What do the screens show for `Cc1nnnn1-c1cccc(C(=O)O)c1`?
BJeLR lethal: -5; RN4220 kill: 1.6; Mtb hypoxia rep: -6; Sa ugtP lethal: 1; Bead autofluor: 9986; PrP UTR inh: 9; Mtb hypoxia rep growth: -11

What do the screens show for `Cc1ccc(-c2csc3nc[nH]c(=O)c23)cc1C`?
BJeLR lethal: -29; RN4220 kill: 7.2; Mtb hypoxia rep: -9; Sa ugtP lethal: 1; Bead autofluor: 3610; PrP UTR inh: -16; Mtb hypoxia rep growth: 1

Results for COc1ccc(OC)c(-n2nnnc2SCC(=O)Nc2cc(C)ccc2OC)c1 ?
BJeLR lethal: 1; RN4220 kill: -0.2; Sa ugtP lethal: 1; Bead autofluor: 3655; PrP UTR inh: -17

Results for CC(NC(=O)CCNS(=O)(=O)c1ccc2c(c1)c(=O)n(C)c(=O)n2C)c1ccccc1 (stereo unspecified) ?
BJeLR lethal: -1; RN4220 kill: -3.0; Mtb hypoxia rep: 0; Sa ugtP lethal: -7; Bead autofluor: 11066; PrP UTR inh: -25; Mtb hypoxia rep growth: 5

How did Cc1ccc(N(C(=O)CS(=O)CC(=O)Nc2ccc(F)cc2)C(C(=O)NC2CCCCC2)c2ccco2)cc1 (stereo unspecified) do in these assays?
BJeLR lethal: 2; RN4220 kill: -2.7; Mtb hypoxia rep: 2; Sa ugtP lethal: -5; Bead autofluor: 2056; PrP UTR inh: -12; Mtb hypoxia rep growth: -1

How did O=C1COc2ccc(C(=O)COc3ccc(Cl)cc3Br)cc2N1 do in these assays?
BJeLR lethal: 0; RN4220 kill: -1.5; Mtb hypoxia rep: 9; Sa ugtP lethal: -8; Bead autofluor: inconclusive; PrP UTR inh: -8; Mtb hypoxia rep growth: 12

What do the screens show for `O=C(N/N=C/C=C/c1ccc2c(c1)OCO2)C(O)c1ccccc1` (stereo unspecified)?
BJeLR lethal: 5; Bead autofluor: 3186; PrP UTR inh: -24

How did COCCN1CCN(C(=O)C2CCC(=O)N(Cc3ccccc3F)C2)CC1 (stereo unspecified) do in these assays?
BJeLR lethal: 2; RN4220 kill: 3.1; Mtb hypoxia rep: 11; Sa ugtP lethal: 8; Bead autofluor: 5859; PrP UTR inh: -2; Mtb hypoxia rep growth: -9

How did CC(C)C(NC(=O)c1ccc2c(c1)OCO2)C(=O)N/N=C/c1cccs1 (stereo unspecified) do in these assays?
BJeLR lethal: -10; Bead autofluor: 2500; PrP UTR inh: -11

What do the screens show for `CCCCOc1ccc(CN2CCN(CC)CC2)cc1`?
BJeLR lethal: 8; RN4220 kill: 17; Mtb hypoxia rep: 2; Sa ugtP lethal: 7; Bead autofluor: inconclusive; PrP UTR inh: -21; Mtb hypoxia rep growth: 9

How did C/C(=N\NC(=O)Cc1csc(N2CCOCC2)n1)c1ccccc1 do in these assays?
BJeLR lethal: -2; Bead autofluor: 21300*; PrP UTR inh: -60

Results for COc1cc(/C(C#N)=C/c2ccccc2)c([N+](=O)[O-])cc1OC ?
BJeLR lethal: -3; RN4220 kill: 2.2; Sa ugtP lethal: 4; Bead autofluor: 2390; PrP UTR inh: -21

What do the screens show for `CCOc1ccc2nc(SC3CC(=O)N(c4cccc(OC)c4)C3=O)sc2c1` (stereo unspecified)?
BJeLR lethal: -4; RN4220 kill: 10; Mtb hypoxia rep: 11; Sa ugtP lethal: 18; Bead autofluor: 2486; PrP UTR inh: -17; Mtb hypoxia rep growth: 8

Results for Cc1cc(OCC(=O)N2CCCC2)cc(C)c1Cl ?
BJeLR lethal: -5; RN4220 kill: 4.3; Sa ugtP lethal: -5; Bead autofluor: 4574; PrP UTR inh: -12

Results for O=C(CN1CCCCCC1)NN=Cc1ccc(Cl)c(Cl)c1 ?
RN4220 kill: -3.6; Mtb hypoxia rep: 3; Sa ugtP lethal: -1; Mtb hypoxia rep growth: 12

How did c1ccc2cc(CSCc3nc4ccccc4[nH]3)ccc2c1 do in these assays?
BJeLR lethal: -8; RN4220 kill: -3.1; Mtb hypoxia rep: -6; Sa ugtP lethal: -10; Bead autofluor: 2603; PrP UTR inh: -11; Mtb hypoxia rep growth: -3

How did Cc1ccc(C)c(N2CCN(C(=O)CCS(=O)(=O)c3ccc4c(c3)CCN4C(=O)C3CC3)CC2)c1 do in these assays?
BJeLR lethal: -12; RN4220 kill: 5.7; Mtb hypoxia rep: -8; Sa ugtP lethal: -1; Bead autofluor: 5220; PrP UTR inh: -30; Mtb hypoxia rep growth: -4

Results for CCN(CC(=O)Nc1cc(Cl)ccc1C)C(=O)c1oc2ccc(OC)cc2c1C ?
BJeLR lethal: 10; Bead autofluor: 5417; PrP UTR inh: -6

How did CC(C)c1nc(NCc2ccccc2)c(C#N)c2c1CCCC2 do in these assays?
BJeLR lethal: -9; RN4220 kill: -11; Sa ugtP lethal: 39; Bead autofluor: 4804; PrP UTR inh: -9

Results for O=C1C(Cl)=C(N2CCOCC2)C(=O)N1c1cccc(C(F)(F)F)c1 ?
BJeLR lethal: -4; RN4220 kill: 3.5; Mtb hypoxia rep: 4; Sa ugtP lethal: -6; Bead autofluor: 4030; PrP UTR inh: -6; Mtb hypoxia rep growth: 15

How did C=CCNC(=O)c1cccc2c1C(=O)c1ccc(N3CCOCC3)cc1S2(=O)=O do in these assays?
RN4220 kill: 2.6; Mtb hypoxia rep: 11; Sa ugtP lethal: 14; Bead autofluor: 4141; PrP UTR inh: -11; Mtb hypoxia rep growth: 9
